Source: PubChem BioAssay (several laboratories)
Vif A3G – HIV-1 Vif–A3G interaction blockers – biochemical, TR-FRET, GST-Vif 1-94, biotin-A3G peptide, dose response retest, primary screen (AID 1117319) | TR-FRET GST-Vif / biotin-A3G peptide binding; higher % means a stronger effect; test concentration not given here; strong numbers were not always called active | inhibition, %; hits with a dose series show IC50 in µM | 260,000 tested, 0.57% active;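 active means above the screen mean plus three standard deviations and confirmed in dose response; inconclusive means results disagree or hit not tested in dose response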;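 further: Vif residues 1-94 fused to GST binding biotinylated APOBEC3G peptide 110-148; 0% = full assay without inhibitor and 100% = GST in place of GST-Vif; retest series ran down from 100 µM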
LANA-H2A inh – blocks KSHV LANA binding to histone H2A/H2B; cell-free LANA-H2A/H2B peptide, fluorescence polarization; 320,000 tested, 0.6% active; AID 2629; Q9QR71; inhibition, % (concentration not given with the values); in the data active means inhibition mostly above about 10%, no sharp cut-off; inactive means mostly below about 6.7%;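 further: stock transfer was 7.5 nL into about 10 µL; 0% = median of vehicle wells and 100% = median of positive control wells; one replicate is shown; the record names a cut of 25% in any replicate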
Calb FLC – C. albicans growth modulation with fluconazole. 300,000 tested, 0.57% active. AID 1979. C. albicans CaCi-2 (fluconazole-resistant clinical isolate) + fluconazole, Alamar Blue growth, 48 h. growth inhibition, % (concentration not given with the values);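 active means most replicates above 75%; inconclusive means exactly half above 75%; inactive means most below 75%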;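 further: all wells also contain fluconazole at 8 µg/ml as a sub-toxic cotreatment; 0% = median of DMSO wells and 100% = median of geldanamycin control wells; wells of about 8 µL received 7.5 nL stock; the first replicate is given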
RanGTP-Imp inh – inhibitors of RanGTP-importin-beta interaction, primary screen, biochemical, FRET, CFP-Ran, YFP-importin-beta, homogeneous; AID 2216; cell-free CFP-Ran/YFP-importin-beta FRET ratio; 300,000 tested, 1.1% active; inhibition, % (concentration not given with the values);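 active means most replicates above 15%; inconclusive means exactly half above 15%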;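 further: 0% = DMSO wells and 100% = Ran loaded with GDP instead of GTP; wells of about 40 µL received 100 nL stock; the first replicate is given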
HNF4A DNA FP – change in binding of human HNF4 alpha to DNA; P41235; HNF4a-FITC DNA binding, fluorescence polarization, 1 h; activity change, % at 10 µM; 360,000 tested, 0.3% active; AID 1224865; in the data active means activity change above about 30%, passing the limit was not always enough;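 further: controls were the assay level and a saturating level of protein; the project sought stronger binding though the title names inhibitors; some compounds called inactive have numbers as strong as hits; positive values seem to mean higher polarization but the record does not say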
B2AR ag – agonists of human beta-2 adrenergic receptor inducing internalization. P07550. Am2.2-beta2AR cells, FAP receptor internalization, flow cytometry; reference of the scale not given here. response, % (test concentration not listed). 340,000 tested, 0.43% active;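 active means response above a set limit, near 3 SD of response in nonfluorescent compounds, cut at about 42% in these data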;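 further: stock transfer was 100 nL into about 11 µL; a reference agonist was the positive control; negative values mostly stem from fluorescent compounds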
Target sequence (P07550 whole entry, looked up): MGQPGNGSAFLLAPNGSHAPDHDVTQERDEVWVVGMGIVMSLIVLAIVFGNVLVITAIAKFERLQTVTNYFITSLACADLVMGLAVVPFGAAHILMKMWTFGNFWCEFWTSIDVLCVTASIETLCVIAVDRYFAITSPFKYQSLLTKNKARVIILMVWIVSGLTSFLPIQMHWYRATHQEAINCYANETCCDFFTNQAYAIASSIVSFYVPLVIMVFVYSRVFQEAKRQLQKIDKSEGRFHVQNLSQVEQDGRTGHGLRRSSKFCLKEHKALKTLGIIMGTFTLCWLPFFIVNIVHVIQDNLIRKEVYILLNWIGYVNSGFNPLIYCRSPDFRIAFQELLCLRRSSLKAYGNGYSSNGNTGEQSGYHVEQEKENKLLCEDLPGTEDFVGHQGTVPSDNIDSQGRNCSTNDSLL
ALR H2O2 inh – blocks human ALR sulfhydryl oxidase activity. purified ALR, DTT oxidation, H2O2 HRP-luminol luminescence. inhibition, % (concentration not given with the values). 290,000 tested, 3.8% active. AID 485317;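 active means mean and each replicate at 75% or more; inconclusive means only one of the two met; inactive means neither met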;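 further: stock transfer was 7.5 nL into about 7.5 µL; 0% = neutral wells and 100% = wells with inactivated enzyme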
Target sequence (P55789 whole entry, looked up): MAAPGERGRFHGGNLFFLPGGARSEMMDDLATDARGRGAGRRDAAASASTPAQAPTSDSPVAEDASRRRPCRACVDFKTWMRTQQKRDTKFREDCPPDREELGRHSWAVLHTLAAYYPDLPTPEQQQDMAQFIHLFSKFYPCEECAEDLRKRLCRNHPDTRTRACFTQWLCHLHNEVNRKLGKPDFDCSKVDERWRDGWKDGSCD
* hit, by the source's call; ? = inconclusive; / = not tested or not shown; & = joins results of further samples; ! = repeats disagree.

SMILES | Vif A3G | LANA-H2A inh | Calb FLC | RanGTP-Imp inh | HNF4A DNA FP | B2AR ag | ALR H2O2 inh
O=C(O)/C=C/c1ccc(O)cc1 | / | -2.4 | -6 | 9.1 | 3.7 | 2 | 52
O=C(Nc1ccc(C(=O)O)c(O)c1)c1ccccc1 | -2% | -0.8 | 1 | -0.4 | 1.5 | 6 | -1
Cn1c(=O)c2c(ncn2CCO)n(C)c1=O | -1% | -18 | / | -0.8 | 5.4 | -2 | 1
C=C1c2cccc(O)c2C(O)=C2C(=O)[C@]3(O)C(O)=C(C(N)=O)C(=O)[C@@H](N(C)C)[C@@H]3[C@@H](O)[C@H]12 | / | 0.7 | -4 | -6.4 | -52 | 1 | 36
COc1ccc2ccc(=O)oc2c1 | -2% | 1.1 | -1 | ? | -0.5 | 3 | -3
CNc1c2c(nn1C)CCCC2 | 2%&-3% | -2.9 | 17&1 | 1.4&-0.2 | -0.6&1.6 | -1&1 | -2
COc1ccc2nc(NC(=O)Nc3ccccc3)sc2c1 | 30% | 12 | -4 | ? | 2.3 | -8 | /
NC(N)=NC(=O)Cc1c(Cl)cccc1Cl | 19% | -3.0&0.4 | -9 | 4.5 | 1.4 | 11 | /
O=C(O)CNC(=O)c1ccccc1 | / | -0.1 | / | -1.6 | -1.0 | 0 | /
COc1c(O)cc2c(c1O)[C@@H]1O[C@H](CO)[C@@H](O)[C@H](O)C1OC2=O (stereo partly specified) | / | 0.1 | -3 | -0.1 | 1.9 | 5 | 23
COC(c1ccccc1)(c1ccccc1)C(Oc1nc(C)cc(C)n1)C(=O)O (stereo unspecified) | / | -6.0 | -4 | 5.9 | 2.7 | -2 | /
CCCOC(=O)c1ccc(O)cc1 | / | 3.9 | -5 | 1.6 | -3.7 | 3 | -9

Pulled by structure from the entries so far:
SMILES | Vif A3G | LANA-H2A inh | Calb FLC | RanGTP-Imp inh | HNF4A DNA FP | B2AR ag | ALR H2O2 inh
COc1c(O)cc2c(c1O)[C@@H]1O[C@H](CO)[C@@H](O)[C@H](O)C1OC2=O (stereo partly specified) | / | 0.1 | -3 | -0.1 | 1.9 | 5 | 23
C=C1c2cccc(O)c2C(O)=C2C(=O)[C@]3(O)C(O)=C(C(N)=O)C(=O)[C@@H](N(C)C)[C@@H]3[C@@H](O)[C@H]12 | / | 0.7 | -4 | -6.4 | -52 | 1 | 36
COC(c1ccccc1)(c1ccccc1)C(Oc1nc(C)cc(C)n1)C(=O)O (stereo unspecified) | / | -6.0 | -4 | 5.9 | 2.7 | -2 | /
Cn1c(=O)c2c(ncn2CCO)n(C)c1=O | -1% | -18 | / | -0.8 | 5.4 | -2 | 1
CNc1c2c(nn1C)CCCC2 | 2%&-3% | -2.9 | 17&1 | 1.4&-0.2 | -0.6&1.6 | -1&1 | -2

(listing goes on)
SMILES | Vif A3G | LANA-H2A inh | Calb FLC | RanGTP-Imp inh | HNF4A DNA FP | B2AR ag | ALR H2O2 inh
COC(=O)C1=CO[C@@H](OC2OC(CO)C(O)C(O)C2O)[C@@H]2[C@@H](C)[C@@H](O)C[C@H]12 (stereo partly specified) | / | 1.7 | -1 | 4.1 | -0.9 | 0 | -3
CCCCOc1ccc(CC(=O)NO)cc1 | 4% | -2.3 | -10 | 2.3 | -3.0 | -9 | 91*
Cc1[nH]c2ccccc2c1/C=N/NC(N)=S | 4% | -1.8 | 1 | -0.9 | -3.4 | 1 | /
Cc1cccc(C)c1NC(=O)C1CCCCN1C (stereo unspecified) | / | 25*! | / | -2.9 | 1.4 | 9 | -14
CC(C)(CO)C(O)C(=O)NCCCO (stereo unspecified) | / | 5.2 | 0 | 3.9 | -5.6 | 5 | -18
CCOC(=O)NNc1nncc2ccccc12 | / | -3.3 | / | / | 0.5 | -6 | 22
NNC(=O)CP(=O)(c1ccccc1)c1ccccc1 | / | 1.1 | -7 | -0.4 | -3.6 | 7 | 6
COc1cc([C@H]2Oc3cc([C@H]4Oc5cc(O)cc(O)c5C(=O)[C@@H]4O)ccc3O[C@@H]2CO)ccc1O | / | -3.4 | 1 | -1.3 | 5.8 | 10 | 99*
O=c1cc(-c2ccc(O)cc2)oc2cc(O[C@@H]3O[C@H](CO)[C@@H](O)[C@H](O)[C@H]3O[C@@H]3OC[C@](O)(CO)[C@H]3O)cc(O)c12 | 6% | -2.7 | -2 | 0.2 | 2.8 | 6 | 56
C[C@@H]1C[C@H]2[C@@H]3C[C@H](F)C4=CC(=O)C=C[C@]4(C)[C@@]3(F)[C@@H](O)C[C@]2(C)[C@@]1(O)C(=O)COC(=O)C(C)(C)C | -8% | 0.2&-16 | / | 6.3 | -1.7 | 2 | /
COc1ccc(/C=N/NC(=O)c2ccncc2)cc1OC | / | 2.7 | 25 | 2.2 | 5.1 | -5 | -5
CN(C)CCOc1ccccc1Cc1ccccc1 | 7% | 6.1* | / | 4.3 | -0.5 | -1 | -8

Sorted by the number under HNF4A DNA FP (ascending): some entries from above.
Molecule	HNF4A DNA FP
CC(C)(CO)C(O)C(=O)NCCCO (stereo unspecified)	-5.6
Cc1[nH]c2ccccc2c1/C=N/NC(N)=S	-3.4
Cc1cccc(C)c1NC(=O)C1CCCCN1C (stereo unspecified)	1.4
O=c1cc(-c2ccc(O)cc2)oc2cc(O[C@@H]3O[C@H](CO)[C@@H](O)[C@H](O)[C@H]3O[C@@H]3OC[C@](O)(CO)[C@H]3O)cc(O)c12	2.8
COc1cc([C@H]2Oc3cc([C@H]4Oc5cc(O)cc(O)c5C(=O)[C@@H]4O)ccc3O[C@@H]2CO)ccc1O	5.8

Exported with two lines to a compound: 2 of the compounds above
Below each compound: Vif A3G, LANA-H2A inh, Calb FLC, RanGTP-Imp inh, HNF4A DNA FP, B2AR ag, ALR H2O2 inh
COc1ccc(/C=N/NC(=O)c2ccncc2)cc1OC
 : /, 2.7, 25, 2.2, 5.1, -5, -5
CN(C)CCOc1ccccc1Cc1ccccc1
 : 7%, 6.1*, /, 4.3, -0.5, -1, -8

A portion of the library; count on the stated rates, not on these rows.
